Compound activity from PubChem.
NPR1 antag = blocks ANP-stimulated signaling of human Npr1 receptor; HEK293 hNpr1 GloSensor cGMP, ANP-stimulated luminescence; P16066; Potency, µM (doses to about 46.3 µM), inactives show at the top dose activity change, negative = inhibition, usual class: inhibitors; 76,000 compounds, 1.6% hits; active = well fitted inhibition curve with a large enough effect; inconclusive = small, poorly fitted or top-dose-only effect; inactive = no such curve, though single readings can be large or run the other way;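 also: nearly all actives have a fitted effect of over 60% in size; nearly all hits also lower the signal before the agonist is added; a reference antagonist and vehicle were the controls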
Target sequence (P16066 whole entry, looked up): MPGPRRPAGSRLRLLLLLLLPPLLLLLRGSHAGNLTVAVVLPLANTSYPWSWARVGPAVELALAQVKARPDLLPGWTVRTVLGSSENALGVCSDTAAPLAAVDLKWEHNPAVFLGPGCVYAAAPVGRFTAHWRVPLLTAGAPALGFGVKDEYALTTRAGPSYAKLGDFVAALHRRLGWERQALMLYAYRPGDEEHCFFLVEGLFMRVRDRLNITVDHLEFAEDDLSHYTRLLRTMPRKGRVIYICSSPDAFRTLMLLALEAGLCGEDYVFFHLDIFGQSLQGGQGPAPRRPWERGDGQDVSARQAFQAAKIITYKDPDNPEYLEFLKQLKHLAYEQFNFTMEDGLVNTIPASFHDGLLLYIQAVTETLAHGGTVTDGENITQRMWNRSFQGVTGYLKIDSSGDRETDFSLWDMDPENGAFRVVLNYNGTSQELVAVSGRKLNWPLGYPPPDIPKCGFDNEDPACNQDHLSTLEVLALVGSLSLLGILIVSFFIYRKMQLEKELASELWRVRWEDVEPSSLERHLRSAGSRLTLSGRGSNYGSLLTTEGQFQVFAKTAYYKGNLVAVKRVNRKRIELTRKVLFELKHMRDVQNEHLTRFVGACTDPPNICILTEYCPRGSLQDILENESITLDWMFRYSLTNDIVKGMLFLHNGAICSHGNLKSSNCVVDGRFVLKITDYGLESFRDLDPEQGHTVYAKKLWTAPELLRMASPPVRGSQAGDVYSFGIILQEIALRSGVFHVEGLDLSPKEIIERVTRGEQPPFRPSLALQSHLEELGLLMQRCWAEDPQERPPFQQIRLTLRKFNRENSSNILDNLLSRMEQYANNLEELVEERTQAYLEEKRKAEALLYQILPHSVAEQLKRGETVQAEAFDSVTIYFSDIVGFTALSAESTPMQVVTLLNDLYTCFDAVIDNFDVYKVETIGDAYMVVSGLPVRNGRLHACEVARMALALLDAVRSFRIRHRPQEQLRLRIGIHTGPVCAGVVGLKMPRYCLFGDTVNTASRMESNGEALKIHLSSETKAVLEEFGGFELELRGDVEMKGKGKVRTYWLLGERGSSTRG
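HEK293 cells stably expressing human Npr1 and cGMP GloSensor pGS-40F, loaded 2 h with 2% GloSensor reagent, given compound 30 min at room temperature. Luminescence read before and 20 min after 0.1 nM hNppA.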
Starred values were filed as active, the others as inactive; ? = inconclusive; [ ] = dose if it differs, or a comment. % is scaled to controls: 0 for no effect and ±100 for the full control effect; potency is read from the fitted curve at half-maximal effect. This is a subset; rates above refer to the full screens.

SMILES | NPR1 antag
Cc1[nH]c2ccc(F)cc2c1Cc1nc(C2CCOC2)no1 (configuration not stated) | 7%
CS(=O)(=O)c1cnc(NCCCc2ccccn2)nc1C1CCCNC1 (configuration not stated) | -5%
O=C(c1cccs1)N1CCN(c2cc(C(F)(F)F)ncn2)CC1 | -10%
COC[C@@H]1CN(C(=O)C2CC2)C[C@H]1c1ccncc1 | 0%
Cn1cnc(S(=O)(=O)N2CCC(Cc3nncn3CC3CC3)C2)c1 (configuration not stated) | 1%
Cc1cccc(C(=O)NC2CCN(c3cc(-c4ccccc4)[nH]n3)C2)c1 (configuration not stated) | -10%
Cc1ccc(C(=O)N2CCCC(c3nc(C4CCOCC4)no3)C2)cn1 (configuration not stated) | 0%
CNC(=O)N1CCCC(c2nc(C(C)C)no2)CCNC(=O)CC1 (configuration not stated) | 2%
O=C(NC1CCN(c2cc(-c3ccc(F)cc3)[nH]n2)CC1)c1cnccn1 | -2%
COc1ccc(C(=O)N[C@H]2CC[C@]3(C)CCC([C@H](C)C(=O)NCCN4CCOCC4)[C@H](O)[C@H]3[C@@H]2C)cc1 (some centres not stated) | -1%
Cc1ccc(OCCC2CCN(C(=O)CCN3C(=O)NC(C)(C)C3=O)C2)cc1 (configuration not stated) | 5%
COc1ccc(C(=O)N2CCCC(c3noc(COc4ccccc4F)n3)C2)cc1 (configuration not stated) | -19%
O=C(NC1CCCN(c2cc(-c3ccc(F)cc3)[nH]n2)C1)c1ccccn1 (configuration not stated) | -3%
COc1ccc([C@H](C)NC(=O)c2c(C)noc2-c2ccccc2C)cc1 | 4%
O=C(NC1CC1)C1CCN(C(=O)c2ncn3c2COC(c2ccc(Cl)cc2)C3)CC1 (configuration not stated) | 4%
COCCOc1cc(=O)n2c(c1C(=O)NC1CCCCC1)CCOCC2 | 1%
COc1cc(Nc2ncncc2-c2nc(-c3ccccc3)no2)c(OC)cc1Cl | -4%
Cc1ccc(NC(=O)CN2C(=O)NC(c3ccc(Cl)cc3)C3=C2COC3=O)cc1Cl (configuration not stated) | ?
Cc1ccc(-c2nc(CNS(=O)(=O)C3CC3)[nH]c2-c2ccccn2)cc1 | -1%
Cc1ccc(C)c(CNC(=O)C2(c3ccc(NS(C)(=O)=O)cc3)CCCCC2)c1 | -9%
CCNc1cc(N2CCC(CCC(=O)NC(CC)CC)CC2)ncn1 | -13%
COCCNC(=O)Cc1c[nH]c2ncc(-c3cccnc3OC)cc12 | -3%[70.6 µM]
COc1ccccc1C(=O)N1CCC2(CC1)CC(N1CCN(C)CC1)CCO2 (configuration not stated) | 2%
Cc1ccc(NC(=O)C2CCCN(S(=O)(=O)c3ccccc3)CCC(=O)NCC2)cc1 (configuration not stated) | 0%
COC1CCOC2(CCN(C(=O)c3cccs3)CC2)C1 (configuration not stated) | 0%
CCc1ccc(CN2C(=O)C3(CCOCC3)CC2c2nnnn2C(C)(C)C)cc1 (configuration not stated) | 2%
c1ccc(CN2CCNc3cnc(Nc4ccc(N5CCOCC5)cc4)cc3C2)cc1 | ?
Cc1cccc(OCC(=O)NCc2nnc3c(-c4nc(C(C)C)no4)cccn23)c1 | 2%
CCN1c2cc(C(=O)NC3CCCC3)ccc2C(=O)N2CCCCCC21 (configuration not stated) | -2%
O[C@H]1[C@H](NCC2CCCCC2)[C@H]2CO[C@H](O2)[C@@H]1N1CCC(Cc2ccccc2)CC1 | -3%[70.6 µM]
Cc1nc2c(c(-c3ccc(O)cc3)n1)CN(CC1CC1)CC2 | 0%[70.6 µM]
O=C(Cc1ccsc1)N1CCCN(c2cc(-c3ccc(Cl)cc3)[nH]n2)CC1 | ?
COc1cccc(Nc2ccc(CN3CCC(C)(NC(C)=O)C3)cc2)c1 (configuration not stated) | ?
CN(Cc1ccsc1)C1CCCc2ccccc21 (configuration not stated) | 4%[70.6 µM]
O=C(NCc1ccccc1)N1CCC(N2CC3CC(C2)[C@H]2CCCC(=O)N2C3)CC1 (some centres not stated) | 1%
O=C1CC(c2ccccc2)N(C(=O)c2ccccn2)CCCCCN1 (configuration not stated) | 5%
COc1cncc(NC(=O)C2=NO[C@@H]3CN(Cc4ccc(O)c(Cl)c4)C[C@H]23)c1 | -11%[70.6 µM]
CC(C)N1C(=O)C(CC(=O)NCCCN2CCc3ccccc3C2)=C2CCCCC21 (configuration not stated) | -1%
Cc1ccc(S(=O)(=O)N2CCCC3(CCC(=O)N(C4CC4)C3)C2)cc1C (configuration not stated) | 2%
CN1c2cc(C(=O)NC3CCCCCC3)ccc2C(=O)N2CCCCCC21 (configuration not stated) | 0%
CC(=O)NC[C@@H]1C=C(C)[C@H](CC(=O)N2CCN(C(C)=O)CC2)C[C@H]1C(C)C | -1%[70.6 µM]
OCCOc1ccccc1CN1CCCC(Nc2ccc(F)c(F)c2)C1 (configuration not stated) | -1%
CC(=O)c1ccc(NC(=O)CN2C(=O)NC3(CCC(C)CC3)C2=O)cc1 (configuration not stated) | 2%
CN(Cc1cccnc1)Cc1nc(C2(O)CCN(Cc3ccccc3F)CC2)cs1 | -6%[70.6 µM]
Cc1ncc(CN2CCCC2C(=O)Nc2ccc(-c3cccc(F)c3)cc2)n1C (configuration not stated) | 16%
Cc1cc(C(=O)N2CCCC(O)(CN3CCCC3)C2)ccc1Cl (configuration not stated) | 5%
O=C(NCC1CC1)C1(CCO)CCN(Cc2ccccc2)C1 (configuration not stated) | 4%
COCCNC(=O)C(C)[C@@H]1CC[C@@]2(C)CC[C@H](NC(=O)c3ccccn3)[C@@H](C)[C@@H]2[C@H]1O (some centres not stated) | 1%[70.6 µM]
CCOc1ccc(CN(CCOC)C(=O)C2CC3(CCNCC3)CN2)cc1 (configuration not stated) | 7%
O=C(NCCCN1CCCc2ccccc21)c1cccnc1N1CC2CC(C1)[C@H]1CCCC(=O)N1C2 (some centres not stated) | -1%
COc1cc(-c2cnc3n[nH]c(-c4ccccc4)c3n2)ccn1 | -2%[70.6 µM]
COc1ccc(-c2cc(C[C@@H]3CC[C@H](O)[C@@H](CNC(=O)c4ccc5c(c4)OCO5)O3)no2)cc1 | -19%
CN1c2cc(C(=O)Nc3cccc(Cl)c3)ccc2C(=O)N2CCCCC21 (configuration not stated) | -12%
Cc1ccc(C(=O)N2CCC(Cc3nc(-c4ccccc4)no3)CC2)cn1 | 6.3µM*
COc1ccc(CN2CC3(CCN(C(=O)c4cn[nH]c4-c4ccc(F)cc4)CC3)C2=O)cc1 | 11µM*
CN(CCSc1ccccc1)C(=O)C1CC(=O)N(Cc2ccncc2)C1 (configuration not stated) | 1%
O=c1cc(N2CCOCC2)oc2c(Nc3cccc(Cl)c3)nccc12 | -8%[70.6 µM]
O=C(Nc1cccnc1)N[C@@H]1C[C@H](CO)[C@@H](O)[C@H]1O | -3%[70.6 µM]
O=[S+]([O-])(Nc1nncs1)c1ccc2c(c1)OCCN(Cc1cccs1)C2 | -10%[70.6 µM]
Cc1ncsc1CN1CCC2(CC1)c1[nH]c3ccccc3c1CCN2C | -3%
New compounds follow
SMILES | NPR1 antag
COc1ccc(C(=O)N2[C@@H]3CC[C@H]2CC(NC(=O)c2ccc(F)cc2)C3)c(OC)n1 (some centres not stated) | 1%
CC[C@@]1(O)CCN(C(=O)c2cccc(-c3cccc(OC)c3)c2)C[C@H]1O | -1%
CC1CCN(C(=O)[C@@H](C)C2CC[C@@]3(C)CC[C@H](NC(=O)c4cncnc4)[C@@H](C)[C@@H]3[C@H]2O)CC1 (some centres not stated) | 1%
Cc1cnc(C(=O)N2CC(Oc3ccc(-c4nc(-c5ccccc5)no4)cc3)C2)cn1 | -13%
O=C(Nc1ccccc1Cl)N1CCc2nc3cc[nH]n3c(=O)c2C1 | -22%
CC(C)NC(=O)N1CCC(c2noc(-c3ccncc3)n2)C1 (configuration not stated) | 3%
CC(=O)N(C1CC1)C1CCOC2(CCN(C(=O)COc3ccccc3)CC2)C1 (configuration not stated) | -2%
CC(=O)N1CCC([C@@H]2CN(Cc3cc(F)c(F)cc3F)C[C@H]2CO)CC1 | 13%
O=C(COc1ccccc1)N[C@H]1[C@H](O)[C@H](O)C[C@@H]1c1ccc(N2CCOCC2)nc1 | -11%[70.6 µM]
COC[C@]1(O)CCN(C(=O)c2c(F)ccc(OC)c2F)CC1(C)C | 0%
CCCNC(=O)C1COC2(CCN(C(=O)c3cccc(OC)c3)CC2)N1C(=O)c1ccccc1 (configuration not stated) | 4%
FC(F)(F)c1cccc2c(N3CCOC(C(F)(F)F)C3)ccnc12 (configuration not stated) | 10µM*
CCc1nc(-c2c3n(c(=O)n(Cc4cccc(C(=O)OC)c4)c2=O)CCCC3)no1 | 0%
CC(C(N)=O)N1CCC(n2nccc2NC(=O)c2ccc3c(c2)OCO3)CC1 (configuration not stated) | 4%
Cn1c([C@H]2CCN(C(=O)COCC(=O)O)C2)nc2ccccc21 | -3%[70.6 µM]
COc1ccc(NC(=O)Cn2c(=O)n(-c3ccc(F)cc3)c(=O)c3c2cc(C)n3C)cc1OC | 4%
Cc1cc(C)n(CC(=O)N2CCC(N3C(=O)C4(CCCCC4)C3c3ccncc3)CC2)n1 (configuration not stated) | 12%
COc1ccc(S(=O)(=O)N[C@H]2C[C@@H](c3nc(-c4ccc(OC(F)(F)F)cc4)no3)N(C)C2)cc1 | 11µM*
CN(C(=O)c1ccc2c(c1)NC(C)(COCC1CC1)CO2)c1ccccc1 (configuration not stated) | -24%[70.6 µM]
Cc1nccn1-c1ccccc1CNC1CCC2(CCNCC2)CC1 | 11%
Cc1cnc(C)n1CC1CCN(S(=O)(=O)c2cccc(F)c2)CC1 | 6%
COC[C@@H]1CN(S(=O)(=O)c2cccc(OC)c2)C[C@H]1C(N)=O | -1%
Cn1cccc1CN1CC[C@@H]2CN(S(C)(=O)=O)[C@@H]2C1 | 5%
Cc1ccccc1C(=O)N1C(C(=O)NCc2ccco2)COC12CCN(C(=O)c1ccco1)CC2 (configuration not stated) | 2%
CNc1cc(C2CC(NC(=O)c3ccc4c(c3)OCC(=O)N4)C2)ncn1 (configuration not stated) | 0%
CS(=O)(=O)N(C1CCOCC1)C1CN(C(=O)Cc2c[nH]c3ccccc23)C1 | 2%
COc1ccc(C2Cn3cnc(C(=O)N4CCC(C(=O)Nc5ccccc5OC)CC4)c3CO2)cc1 (configuration not stated) | -14%
O=C(CCc1ccccc1)NCCC1CCN(C(=O)Nc2ccccc2)CC1 | -3%
NC(=O)C1CCCN(CCNc2cc(-c3ccccc3)nc3ccnn23)C1 (configuration not stated) | -3%
O=C(CC1CCCCC1)N1CCC2(CC1)CC(N1CCN(c3ccccn3)CC1)CCO2 (configuration not stated) | -2%
CN(C)c1ccc(C(=O)N[C@H]2C[C@@H](c3nc(-c4ccc5ccccc5c4)no3)N(C)C2)cc1 | -11%
CNC(=O)[C@@H](c1ccccc1F)N1CCC[C@H]1C(=O)NCCN(C)C | 1%[70.6 µM]
Cc1noc([C@@H]2CN(S(=O)(=O)c3ccc4c(c3)OCCO4)C[C@H]2C(N)=O)n1 | -3%
COc1ccc2[nH]c(=O)c(CCC(=O)O)cc2c1 | 2%
CC1=Nc2cc(C(=O)NCCCN(C)C)ccc2Sc2ccc(Cl)cc21 | -12%
O=C(CCC1CC1)N1CCC(c2cc(Cc3ccccc3)[nH]n2)CC1 | -27%
O=C(c1ccc2nc[nH]c2c1)N1CCC(c2nc(-c3ccccc3)no2)C1 (configuration not stated) | ?
NC(=O)[C@H](CC1CCCCC1)NC(=O)[C@@H]1CN(S(=O)(=O)c2ccccc2)CCN1S(=O)(=O)c1ccccc1 | 0%
O=C1[C@@H]2C[C@@H](CN2C(=O)c2ccc(C(F)(F)F)cc2)Oc2ccccc2N1Cc1ccccc1 | 2%
O=C1C[C@@H]2CCN(C(=O)Nc3ccccc3)C[C@@H]2CCN1CCc1cnc[nH]1 | 0%[70.6 µM]

Among those listed so far, 18 have fluorine.
SMILES | NPR1 antag
Cc1[nH]c2ccc(F)cc2c1Cc1nc(C2CCOC2)no1 (configuration not stated) | 7%
O=C(c1cccs1)N1CCN(c2cc(C(F)(F)F)ncn2)CC1 | -10%
O=C(NC1CCN(c2cc(-c3ccc(F)cc3)[nH]n2)CC1)c1cnccn1 | -2%
COc1ccc(C(=O)N2CCCC(c3noc(COc4ccccc4F)n3)C2)cc1 (configuration not stated) | -19%
O=C(NC1CCCN(c2cc(-c3ccc(F)cc3)[nH]n2)C1)c1ccccn1 (configuration not stated) | -3%
OCCOc1ccccc1CN1CCCC(Nc2ccc(F)c(F)c2)C1 (configuration not stated) | -1%
CN(Cc1cccnc1)Cc1nc(C2(O)CCN(Cc3ccccc3F)CC2)cs1 | -6%[70.6 µM]
Cc1ncc(CN2CCCC2C(=O)Nc2ccc(-c3cccc(F)c3)cc2)n1C (configuration not stated) | 16%
COc1ccc(CN2CC3(CCN(C(=O)c4cn[nH]c4-c4ccc(F)cc4)CC3)C2=O)cc1 | 11µM*
COc1ccc(C(=O)N2[C@@H]3CC[C@H]2CC(NC(=O)c2ccc(F)cc2)C3)c(OC)n1 (some centres not stated) | 1%
CC(=O)N1CCC([C@@H]2CN(Cc3cc(F)c(F)cc3F)C[C@H]2CO)CC1 | 13%
COC[C@]1(O)CCN(C(=O)c2c(F)ccc(OC)c2F)CC1(C)C | 0%
FC(F)(F)c1cccc2c(N3CCOC(C(F)(F)F)C3)ccnc12 (configuration not stated) | 10µM*
COc1ccc(NC(=O)Cn2c(=O)n(-c3ccc(F)cc3)c(=O)c3c2cc(C)n3C)cc1OC | 4%
COc1ccc(S(=O)(=O)N[C@H]2C[C@@H](c3nc(-c4ccc(OC(F)(F)F)cc4)no3)N(C)C2)cc1 | 11µM*
Cc1cnc(C)n1CC1CCN(S(=O)(=O)c2cccc(F)c2)CC1 | 6%
CNC(=O)[C@@H](c1ccccc1F)N1CCC[C@H]1C(=O)NCCN(C)C | 1%[70.6 µM]
O=C1[C@@H]2C[C@@H](CN2C(=O)c2ccc(C(F)(F)F)cc2)Oc2ccccc2N1Cc1ccccc1 | 2%
